Screens deposited in PubChem by several laboratories.
HSV augment: increases HSV replication in cells; AID 1956; HSV replication augmentation in cells, fold increase; maximum fold increase; 220,000 tested, 0.005% active;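 active = peak rise of 1.5-fold or more in the series; tested in PC3 cells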;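 note: first round at 10 µM; read as green reporter fluorescence; hits show the peak of a series up to 25 µM; 1 = signal of infected wells without compound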
RGS16-Gao HTS: modulates binding between human RGS16 and Galphao. O15492+P09471. bead-based flow cytometry RGS16-Galphao binding, fluorescence; actives lie on both sides. binding response (% of control), % at 10 µM. 220,000 tested, 0.38% active. AID 1441;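 active = below 25% or above 175%, edge rows of some plates excepted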;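 note: Galphao activated by GDP with aluminum fluoride before binding; 100% = wells without compound and 0% = beads without RGS; some results beyond the cut were filed as inactive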
Target sequence (O15492 whole entry, looked up): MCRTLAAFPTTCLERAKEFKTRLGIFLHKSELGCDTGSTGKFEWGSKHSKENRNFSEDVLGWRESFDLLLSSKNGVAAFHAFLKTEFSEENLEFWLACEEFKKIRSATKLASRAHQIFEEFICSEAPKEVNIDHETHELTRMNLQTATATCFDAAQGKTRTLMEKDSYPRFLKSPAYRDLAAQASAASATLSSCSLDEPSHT
Target sequence (P09471 whole entry, looked up): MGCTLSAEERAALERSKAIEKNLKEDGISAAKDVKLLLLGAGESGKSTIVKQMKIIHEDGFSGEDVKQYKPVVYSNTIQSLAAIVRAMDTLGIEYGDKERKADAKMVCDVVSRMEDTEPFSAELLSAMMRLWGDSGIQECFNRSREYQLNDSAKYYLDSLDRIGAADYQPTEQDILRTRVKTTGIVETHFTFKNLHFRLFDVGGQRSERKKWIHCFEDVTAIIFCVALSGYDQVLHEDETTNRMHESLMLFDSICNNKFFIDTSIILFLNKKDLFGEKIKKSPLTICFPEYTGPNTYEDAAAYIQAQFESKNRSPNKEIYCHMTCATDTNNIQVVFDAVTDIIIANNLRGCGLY
PKD1 inh: inhibitors of human PKD1 kinase; Q15139; PKD1 kinase fluorescence polarization assay; inhibition, %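 (about 10 µM by stock and volumes)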; 200,000 tested, 0.056% active;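 active = inhibition of 50% or more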;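 note: controls were vehicle for no effect and a reference inhibitor for full effect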
Insulin prom inh: TRM-6 insulin promoter activity inhibition. TRM-6 cells (human fetal islet line), insulin promoter-eGFP reporter, imaging; reporter expression induced with tamoxifen. inhibition, % at 2 µM. 130,000 tested, 0.9% active. AID 1273;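 active = inhibition above the mean plus 3 SD, with well images judged a real hit on visual review, cut at about 60% in these data, passing the limit was not always enough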
GALR2 ag: agonists of human galanin receptor 2 (GALR2); GALR2-expressing cells, agonist activation read-out; activation, %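 (tested at 5 µM)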; 140,000 tested, 0.48% active;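 active = above mean plus 3 SD of all compounds, about 5% in these data, not always enough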;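 note: 0% = vehicle buffer wells and 100% = reference agonist at full effect; tested in CHO reporter cells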
Target sequence (O43603 whole entry, looked up): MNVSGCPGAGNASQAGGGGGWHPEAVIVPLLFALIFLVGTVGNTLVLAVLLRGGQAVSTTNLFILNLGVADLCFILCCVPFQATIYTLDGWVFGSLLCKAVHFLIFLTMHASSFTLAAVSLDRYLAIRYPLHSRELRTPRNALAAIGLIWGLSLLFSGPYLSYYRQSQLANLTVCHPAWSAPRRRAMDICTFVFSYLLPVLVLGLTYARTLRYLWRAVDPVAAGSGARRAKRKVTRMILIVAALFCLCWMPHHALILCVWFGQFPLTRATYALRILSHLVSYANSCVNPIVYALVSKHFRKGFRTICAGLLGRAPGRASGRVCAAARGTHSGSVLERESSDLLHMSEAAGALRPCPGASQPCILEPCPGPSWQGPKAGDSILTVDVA
Insulin prom inh cell count: further read-out of Insulin prom inh, marked with its call; normalized cell count, %; measured here: cell count, toxicity; reference of the scale not given here;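 cells exposed to compound for 48 h; stained nuclei by imaging scaled within each plate; lower means fewer cells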
HSV augment primary fold: also measured in HSV augment; calls as there; fold increase; compound at 10 µM; measured here: primary screen fold increase 10 uM; tested in PC3 cells;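 GFP signal in the first replicate; 1 = infected wells without compound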
* hit, by the source's call; i = inactive; / = not tested or not shown.

no. | Structure | HSV augment | HSV augment primary fold | RGS16-Gao HTS | PKD1 inh | Insulin prom inh | Insulin prom inh cell count | GALR2 ag
1 | CN1C(=S)SC(/[N+]([O-])=C/c2c(F)cccc2Cl)C1(C)C (stereo not drawn) | i | 1.1 | 102 | / | / | / | /
2 | CN1CCc2c(sc3c2C(=O)NC(c2ccccn2)N3)C1 (stereo not drawn) | i | 1 | 101 | 1 | -11 | 190 | 2.8
3 | CCCCCCC(=O)N/N=C/Cc1ccccc1 | i | 0.95 | 103 | 5 | 7 | 79 | -0.7
4 | O=C(CSc1ncccn1)N/N=C/c1cccc(OC2CSC2)c1 | i | 0.97 | 108 | -4 | -33 | 95 | /
5 | O=C(NN1C(=O)c2cc(Br)ccc2NC1c1cc(Br)cc(Br)c1O)c1ccncc1 (stereo not drawn) | i | 1.1 | 166 | -4 | 0 | 66 | 0.7
6 | O=C(CN1CCOCC1)NC1CC2CCC1C2 (stereo not drawn) | i | 0.99 | 467 | 1 | -37 | 122 | -1.6
7 | CCCCOc1c(Br)cc(/C=C2\N=C(C)OC2=O)cc1OCC | i | 1 | 101 | 8 | -10 | 64 | -2.3
8 | Cc1ccccc1NC(=O)c1sc(NC(=O)COc2ccccc2)c(C#N)c1C | i | 0.96 | 105 | -3 | 17 | 132 | -0.2
9 | Cc1ccc(C2=NN(C(=O)C3CCCO3)C(c3ccco3)C2)cc1 (stereo not drawn) | i | 1.1 | 117 | 5 | 4 | 26 | /
10 | Cc1cccc(Cn2nc(-n3cccc3)c3c(C)cc(C)nc32)c1 | i | 1.1 | 93 | -7 | -209 | 105 | /
11 | COC(=O)c1cc2n(n1)CCN(Cc1ccc(C)cc1)C2=O | i | 1 | 102 | -1 | 37 | 118 | 0.3
12 | OCCCn1c(-c2ccccc2)csc1=Nc1ccccc1 | i | 0.86 | 98 | 2 | / | / | /
13 | O=C(CCC1CCCCC1)Nc1ccc(C(=O)c2ccncc2)cc1 | i | 1.1 | 97 | -1 | / | / | /
14 | CC(C)CC(=O)NC(=S)Nc1cccc2nsnc12 | i | 1.1 | 100 | -5 | / | / | /
15 | c1ccc(OCCCCN2CCOCC2)cc1 | i | 0.99 | 99 | 1 | / | / | -0.5
16 | Cc1ccc(C(=O)NC(=S)N2CCN(c3ccccc3F)CC2)cc1 | i | 1.1 | 96 | 2 | -15 | 50 | -0.4
17 | Cc1c(NC(=O)C(Sc2ccccc2)c2ccccc2)cccc1[N+](=O)[O-] (stereo not drawn) | / | / | 94 | -1 | -40 | 134 | -0.9
18 | CC(=O)Nc1ccc(S(=O)(=O)N2CCC(c3nc4ccccc4[nH]3)CC2)cc1 | i | 0.92 | 109 | -12 | 32 | 65 | -1.2
19 | COc1ccccc1NS(=O)(=O)c1ccc(OC)c([N+](=O)[O-])c1 | i | 1.1 | 103 | 1 | / | / | /
20 | CCCCn1c2c(c3ccccc31)CCc1nonc1-2 | i | 1 | / | 6 | / | / | -0.2
21 | C=CCOC(=O)CCP(=O)(CCC(=O)OCC=C)c1ccccc1 | i | 0.89 | 102 | -6 | 29 | 134 | -2.3
22 | O=C(Nc1cccc(C(=O)N2CCOCC2)c1)NC1CCCCC1 | i | 0.98 | 100 | -11 | 42 | 100 | -1.3
23 | N#CC1CN(Cc2ccccc2)CN(Cc2ccccc2)C1 | i | 0.92 | 106 | / | / | / | /
24 | CC(C)c1cc(C(=O)N/N=C/c2cccnc2)cs1 | i | 0.87 | 101 | 3 | 38 | 88 | -2.4
25 | Cc1cccc(C)c1NC(=O)CNCC(=O)N(C)C | i | 1 | 95 | -1 | -67 | 88 | /

An excerpt of these results, with two lines to a compound:
Screens in order: HSV augment	HSV augment primary fold	RGS16-Gao HTS	PKD1 inh	Insulin prom inh	Insulin prom inh cell count	GALR2 ag
(1) CN1C(=S)SC(/[N+]([O-])=C/c2c(F)cccc2Cl)C1(C)C (stereo not drawn)
 : i	1.1	102	/	/	/	/
(2) CN1CCc2c(sc3c2C(=O)NC(c2ccccn2)N3)C1 (stereo not drawn)
 : i	1	101	1	-11	190	2.8
(3) CCCCCCC(=O)N/N=C/Cc1ccccc1
 : i	0.95	103	5	7	79	-0.7
(4) O=C(CSc1ncccn1)N/N=C/c1cccc(OC2CSC2)c1
 : i	0.97	108	-4	-33	95	/
(5) O=C(NN1C(=O)c2cc(Br)ccc2NC1c1cc(Br)cc(Br)c1O)c1ccncc1 (stereo not drawn)
 : i	1.1	166	-4	0	66	0.7
(6) O=C(CN1CCOCC1)NC1CC2CCC1C2 (stereo not drawn)
 : i	0.99	467	1	-37	122	-1.6
(7) CCCCOc1c(Br)cc(/C=C2\N=C(C)OC2=O)cc1OCC
 : i	1	101	8	-10	64	-2.3
(8) Cc1ccccc1NC(=O)c1sc(NC(=O)COc2ccccc2)c(C#N)c1C
 : i	0.96	105	-3	17	132	-0.2
(9) Cc1ccc(C2=NN(C(=O)C3CCCO3)C(c3ccco3)C2)cc1 (stereo not drawn)
 : i	1.1	117	5	4	26	/
(10) Cc1cccc(Cn2nc(-n3cccc3)c3c(C)cc(C)nc32)c1
 : i	1.1	93	-7	-209	105	/
(11) COC(=O)c1cc2n(n1)CCN(Cc1ccc(C)cc1)C2=O
 : i	1	102	-1	37	118	0.3
(12) OCCCn1c(-c2ccccc2)csc1=Nc1ccccc1
 : i	0.86	98	2	/	/	/
(13) O=C(CCC1CCCCC1)Nc1ccc(C(=O)c2ccncc2)cc1
 : i	1.1	97	-1	/	/	/
(14) CC(C)CC(=O)NC(=S)Nc1cccc2nsnc12
 : i	1.1	100	-5	/	/	/

(list continues)
no. | Structure | HSV augment | HSV augment primary fold | RGS16-Gao HTS | PKD1 inh | Insulin prom inh | Insulin prom inh cell count | GALR2 ag
26 | C=C(C)CSc1nnc(-c2cc(OC)c(OC)c(OC)c2)n1N | i | 0.93 | 115 | -12 | 3 | 91 | -1.1
27 | COc1cc(C)nc(OCCNC(=O)COc2ccc(Cl)cc2C)n1 | i | 0.98 | 102 | 4 | 8 | 121 | -3.1
28 | CNC(=O)NCCN1CCCC1=O | i | 1 | 108 | -2 | 47 | 46 | 0.6
29 | O=C(COc1ccccc1)Nc1ccc(S(=O)(=O)N2CCCCCC2)cc1 | i | 0.75 | 106 | 0 | / | / | -0.7
30 | CC(C)CN1C(=O)C(=O)N(CC(=O)NC2CCCc3ccccc32)C1=O (stereo not drawn) | i | 0.99 | 106 | -1 | 0 | 143 | /
31 | Cc1cccc(Oc2nc3c(c(=O)n(C)c(=O)n3C)n2C)c1 | i | 0.91 | 101 | 7 | / | / | /
32 | O=C(CSc1ccc(Cl)cc1)N1CCN(c2ccc([N+](=O)[O-])cc2Cl)CC1 | i | 0.97 | 114 | 1 | -54 | 101 | -1.9
33 | CC1(C(=O)N(c2ccccc2)C(C(=O)NC2CCCC2)c2ccccn2)CC(=O)N=C2C=CC=CN21 (stereo not drawn) | i | 1 | 98 | -13 | -29 | 79 | -0.2
34 | Cc1ccc(NC(=S)N/N=C/c2ccc([N+](=O)[O-])s2)cc1 | i | 0.94 | 101 | -13 | -293 | 165 | -0.7
35 | CC(=O)N1N=C(N)SC1(C)C | i | 1.1 | 101 | 3 | 12 | 109 | /
36 | Cc1ccc(C(=O)/C=C/c2c(C)nn(-c3ccccc3)c2Cl)cc1 | / | / | 101 | 3 | / | / | -0.9
37 | O=C(CSc1nnc(-c2ccccc2O)o1)Oc1ccc(Br)cc1 | i | 1.1 | 92 | -9 | 48 | 94 | -0.3
38 | CCC(CC)NC(=O)c1ccc2nc[nH]c2c1 | i | 0.95 | 102 | 4 | -13 | 78 | 0.2
39 | O=C(C1CC1)N1CCC(c2nc(-c3ccc(S(=O)(=O)N4CCCC4)cc3)no2)CC1 | i | 1.2 | 108 | 0 | -22 | 126 | -0.8
40 | O=C1c2ccccc2C(=O)N1CN(C(=O)COc1ccccc1)c1ccccc1 | i | 0.86 | 101 | -7 | / | / | -4.2
41 | COc1ccc(OC)c(NC(=O)c2cn(C)c(=O)c3cc(OC)c(OC)cc23)c1 | / | / | 100 | -3 | 26 | 81 | 0.1
42 | O=C(O)c1ccccc1-c1nc2cc(Cl)ccc2c(=O)n1O | i | 0.91 | 101 | -6 | 33 | 85 | /
43 | COc1ccc(-c2nc(Cc3ccc(Cl)cc3)no2)cc1OC | i | 0.86 | 100 | 3 | -66 | 90 | -1.4
44 | N#Cc1cc(N)ccc1-n1cccc1 | i | 1.1 | 97 | / | / | / | /
45 | CCOC(=O)c1oc2ccccc2c1CSc1nnnn1-c1ccc(C)cc1 | i | 0.85 | 83 | -2 | -195 | 68 | -2.8
46 | O=[N+]([O-])c1ccc(O)c2ncccc12 | i | 0.66 | 97 | 4 | -19 | 90 | -1.2
47 | Cc1noc(C)c1COc1ccc(C(=O)OCC(=O)NCCN2C(=O)CSC2=O)cc1 | i | 0.9 | 100 | 0 | / | / | /
48 | COc1cc(SC)ccc1C(=O)N1CC(C)OC(C)C1 (stereo not drawn) | i | 0.97 | 99 | 2 | 25 | 133 | /
49 | COC(=O)c1ccc(N2OC3(C)C=CC2CC3)cc1 (stereo not drawn) | i | 1.1 | 98 | -7 | / | / | -0.8
50 | C=CCn1cc(C(=O)N2CCN(C)CC2)c(=O)c2cc(S(=O)(=O)N3CCCC3)ccc21 | / | / | 214 | 6 | / | / | -2.5

no. | Structure | HSV augment | HSV augment primary fold | RGS16-Gao HTS | PKD1 inh | Insulin prom inh | Insulin prom inh cell count | GALR2 ag
51 | O=C(NCc1ccco1)c1nc(-c2ccc(F)cc2)no1 | i | 1.1 | 85 | -1 | 20 | 63 | /
52 | CCOC(=O)Cn1c(=O)n(Cc2ccco2)c(=O)c2ccc(C(=O)NC3CCCC3)cc21 | i | 0.95 | 103 | -5 | / | / | -2.7
53 | O=C(NC(=S)Nc1cccc2cnccc12)c1ccccc1 | i | 0.69 | 94 | -8 | / | / | /
54 | Cc1ccc(C(O)(C(=O)NNc2ccccn2)c2ccc(C)cc2)cc1 | i | 0.89 | 99 | -1 | / | / | /
55 | Cc1ccc(-n2c(SCC(=O)N/N=C/c3ccccc3C(=O)O)nnc2-c2ccccc2)cc1 | i | 0.85 | 95 | / | / | / | /
56 | COc1ccc(C2C(C(C)=O)=C(C)N=c3s/c(=C/c4ccc5c(c4)OCO5)c(=O)n32)cc1 (stereo not drawn) | / | / | 110 | 2 | -46 | 110 | -0.2
57 | CCc1c(C)sc(NC(=O)c2cc(C(C)C)on2)c1C#N | i | 1.1 | 99 | -6 | / | / | /
58 | O=C(CN1CCCC1)Nc1cc(C(F)(F)F)ccc1Cl | i | 0.89 | 102 | -2 | / | / | /
59 | COC(=O)N/N=C(\CCC(=O)O)c1cccs1 | i | 1 | 100 | / | / | / | /
60 | Cc1cccc(N2C(=O)CC(N3CCN(C(=O)c4ccccc4)CC3)C2=O)c1 (stereo not drawn) | i | 0.99 | 102 | -1 | -12 | 127 | -0.2
61 | Cn1ccnc1Sc1nc2ccccc2nc1NS(=O)(=O)c1ccccc1 | i | 0.86 | 100 | 7 | / | / | -0.8
62 | CC(NC(=O)c1ccc(N(C)C)cc1)c1ccc(F)cc1 (stereo not drawn) | i | 1 | 97 | 6 | -20 | 134 | /
63 | O=C(O)C1CC=CCC1C(=O)Nc1ccc(N2CCN(Cc3ccccc3)CC2)cc1 (stereo not drawn) | i | 0.99 | 170 | -5 | / | / | -0.7
64 | COc1ccccc1N1CCN(Cc2ccc(Br)o2)CC1 | i | 0.79 | 99 | 2 | 11 | 58 | -1.1
65 | NS(=O)(=O)c1ccc(NC(=O)c2cccc(Cl)c2)cc1 | i | 0.91 | 101 | / | / | / | /
66 | CC(=O)NN1C(=O)c2ccc(Oc3ccc([N+](=O)[O-])cc3)cc2C1=O | i | 0.79 | 102 | 6 | / | / | -2.0
67 | O=Cc1[nH]c2ccccc2c1N(C(=O)CCl)c1ccccc1 | i | 1 | 104 | / | / | / | /
68 | COc1ccc(OC)c(NC(=O)COC(=O)c2ccc(-n3cnnn3)cc2)c1 | i | 0.82 | 101 | -3 | -12 | 76 | -0.8
69 | CCOC(=O)N1CCc2c(sc3ncn(C)c(=O)c23)C1 | i | 0.99 | 103 | / | / | / | /
70 | O=C(CSc1nc2ccccc2c(=O)n1-c1ccccc1F)Nc1ccc2c(c1)CCC2 | i | 0.98 | 90 | -10 | 38 | 102 | -1.6
71 | CC(=O)OC[C@H]1O[C@H](C/C=N/OC[C@@H](O)[C@H]2O[C@@H]3OC(C)(C)O[C@@H]3[C@H]2O)C=C[C@@H]1OC(C)=O | / | / | 73 | -11 | 52 | 84 | -0.6
72 | Cc1nc([N+](=O)[O-])c(Br)n1CC(=O)c1cccc([N+](=O)[O-])c1 | i | 0.74 | 102 | -6 | 56 | 109 | /
